RGS16-Gao: RGS16-Galphao interaction regulator (human); AID 1441; O15492+P09471; 0.38% of 220,000 active; binding response (% of control), % at 10 µM; bead-based flow cytometry RGS16-Galphao binding, fluorescence; actives lie on both sides;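 active = below 25% or above 175%, edge rows of some plates excepted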;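 note: Galphao activated by GDP with aluminum fluoride before binding; 100% = wells without compound and 0% = beads without RGS; some results beyond the cut were filed as inactive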
Target sequence (O15492 whole entry, looked up): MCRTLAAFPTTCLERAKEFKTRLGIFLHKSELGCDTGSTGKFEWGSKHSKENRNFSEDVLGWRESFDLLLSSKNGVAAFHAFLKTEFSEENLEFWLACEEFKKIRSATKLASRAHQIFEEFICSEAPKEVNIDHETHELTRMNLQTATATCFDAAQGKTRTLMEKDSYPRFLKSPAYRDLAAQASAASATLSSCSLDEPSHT
Target sequence (P09471 whole entry, looked up): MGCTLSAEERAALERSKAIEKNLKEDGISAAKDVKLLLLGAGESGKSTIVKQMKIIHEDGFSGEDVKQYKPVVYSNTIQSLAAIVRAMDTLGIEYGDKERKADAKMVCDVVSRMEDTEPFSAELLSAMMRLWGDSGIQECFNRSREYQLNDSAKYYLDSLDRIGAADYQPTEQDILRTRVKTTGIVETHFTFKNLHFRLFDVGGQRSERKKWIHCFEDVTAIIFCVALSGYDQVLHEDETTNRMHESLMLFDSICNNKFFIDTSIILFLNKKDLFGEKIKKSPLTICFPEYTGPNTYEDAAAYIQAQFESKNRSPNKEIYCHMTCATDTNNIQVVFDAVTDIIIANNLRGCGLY
HSV augment: increases HSV replication in cells. HSV replication augmentation in cells, fold increase. maximum fold increase. 0.005% of 220,000 active;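 active = peak rise of 1.5-fold or more in the series; tested in PC3 cells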;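 note: first round at 10 µM; read as green reporter fluorescence; hits show the peak of a series up to 25 µM; 1 = signal of infected wells without compound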
Insulin prom inh: TRM-6 insulin promoter activity inhibition. inhibition, % at 2 µM. TRM-6 cells (human fetal islet line), insulin promoter-eGFP reporter, imaging; reporter expression induced with tamoxifen. 0.9% of 130,000 active. AID 1273;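 active = inhibition above the mean plus 3 SD, with well images judged a real hit on visual review, cut at about 60% in these data, passing the limit was not always enough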
PKD1 kinase inh: blocks activity of human protein kinase D1. Q15139. PKD1 kinase fluorescence polarization assay. inhibition, %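 (about 10 µM by stock and volumes)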. 0.056% of 200,000 active;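 active = inhibition of 50% or more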;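 note: controls were vehicle for no effect and a reference inhibitor for full effect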
GALR2 ag: GALR2 (human) receptor agonism; O43603; GALR2-expressing cells, agonist activation read-out; activation, %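 (tested at 5 µM)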; 0.48% of 140,000 active; AID 803;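 active = above mean plus 3 SD of all compounds, about 5% in these data, not always enough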;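 note: 0% = vehicle buffer wells and 100% = reference agonist at full effect; tested in CHO reporter cells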
Target sequence (O43603 whole entry, looked up): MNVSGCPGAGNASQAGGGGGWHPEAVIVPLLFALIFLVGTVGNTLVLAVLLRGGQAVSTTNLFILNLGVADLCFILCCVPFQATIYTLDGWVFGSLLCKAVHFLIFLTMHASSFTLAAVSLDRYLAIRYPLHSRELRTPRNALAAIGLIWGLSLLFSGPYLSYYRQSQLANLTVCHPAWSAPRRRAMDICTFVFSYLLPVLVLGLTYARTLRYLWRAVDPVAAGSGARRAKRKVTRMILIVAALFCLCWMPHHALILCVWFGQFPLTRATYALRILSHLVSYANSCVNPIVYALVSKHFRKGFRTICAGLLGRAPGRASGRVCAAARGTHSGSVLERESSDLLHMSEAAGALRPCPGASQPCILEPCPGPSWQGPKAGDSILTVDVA
Insulin prom inh cell count: second read-out of Insulin prom inh, no call of its own (marks repeat the call); normalized cell count, %; measured here: cell count, toxicity; reference of the scale not given here;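 cells exposed to compound for 48 h; stained nuclei by imaging scaled within each plate; lower means fewer cells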
HSV augment primary fold: further read-out of HSV augment, marked with its call; fold increase; compound at 10 µM; measured here: primary screen fold increase 10 uM; tested in PC3 cells;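 GFP signal in the first replicate; 1 = infected wells without compound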
* hit, by the source's call. Hits appear at their usual frequency. About 1.1% of those tested had a hit in this group.

Results for CCCNC(=O)Cn1cnc2sc(C(=O)N3CCCC(C(=O)OCC)C3)c(C)c2c1=O (stereo unspecified) ?
RGS16-Gao: 77; HSV augment: inactive; Insulin prom inh: -10; PKD1 kinase inh: -4; GALR2 ag: -2.8; Insulin prom inh cell count: 149; HSV augment primary fold: 0.99

How did CCOc1ccc(C2=Nc3ccc(Br)cc3C(c3ccc(N4CCOCC4)cc3)=NN2)cc1 do in these assays?
RGS16-Gao: 114; HSV augment: inactive; PKD1 kinase inh: -5; GALR2 ag: -1.3; HSV augment primary fold: 1.1

What do the screens show for `Brc1ccc(-c2nn3c(Cc4ccccc4)nnc3s2)o1`?
RGS16-Gao: 93; HSV augment: inactive; Insulin prom inh: 0; PKD1 kinase inh: -11; GALR2 ag: -1.5; Insulin prom inh cell count: 95; HSV augment primary fold: 0.98

What do the screens show for `Cc1ccc(S(=O)(=O)NCC2COc3ccccc3O2)cc1` (stereo unspecified)?
RGS16-Gao: 102; HSV augment: inactive; Insulin prom inh: 0; PKD1 kinase inh: -9; GALR2 ag: 0.4; Insulin prom inh cell count: 115; HSV augment primary fold: 0.9

What do the screens show for `C=CC(C)(C)c1[nH]cnc1/C=C1\NC(=O)C(C(C)C)NC1=O` (stereo unspecified)?
RGS16-Gao: 83; HSV augment: inactive; HSV augment primary fold: 0.84

Results for COc1ccc2c(c1)OC(O)(C(F)F)CC2=O (stereo unspecified) ?
RGS16-Gao: 107; HSV augment: inactive; Insulin prom inh: 5; PKD1 kinase inh: -10; GALR2 ag: 0.2; Insulin prom inh cell count: 94; HSV augment primary fold: 1.1

How did Cc1ccc(-n2nnc3c(=O)n(CC(=O)NCc4ccco4)cnc32)cc1 do in these assays?
RGS16-Gao: 99; HSV augment: inactive; PKD1 kinase inh: -5; GALR2 ag: -1.2; HSV augment primary fold: 0.92

Results for O=C(CCS(=O)(=O)Cc1ccccc1)Nc1ccc2c(c1)OCCO2 ?
RGS16-Gao: 101; HSV augment: inactive; PKD1 kinase inh: 1; HSV augment primary fold: 0.99

Results for O=C(NC(Cc1c[nH]c2ccccc12)C(=O)N/N=C/c1cccc2ccccc12)c1cccs1 (stereo unspecified) ?
RGS16-Gao: 105; HSV augment: inactive; Insulin prom inh: 40; PKD1 kinase inh: -1; GALR2 ag: -0.5; Insulin prom inh cell count: 211; HSV augment primary fold: 0.84

What do the screens show for `O=C(CC12CC3CC(C1)CC(CC(=O)NC1=NCCS1)(C3)C2)NC1=NCCS1`?
RGS16-Gao: 98; HSV augment: inactive; Insulin prom inh: 27; PKD1 kinase inh: -9; GALR2 ag: 0.2; Insulin prom inh cell count: 84; HSV augment primary fold: 0.93

Results for C/C(=C\c1ccco1)CN1CCN(Cc2ccc(C)o2)C(CCO)C1 (stereo unspecified) ?
RGS16-Gao: 103; HSV augment: inactive; PKD1 kinase inh: 1; HSV augment primary fold: 1

How did Cc1cccc(NC(=S)NN2CCOCC2)c1C do in these assays?
RGS16-Gao: 97; HSV augment: inactive; Insulin prom inh: 26; PKD1 kinase inh: 16; GALR2 ag: -0.3; Insulin prom inh cell count: 114; HSV augment primary fold: 0.99

Results for COC(=O)Nc1ccc2c(c1)N(C(=O)CCN1CCN3CCCC3C1)c1ccccc1S2 (stereo unspecified) ?
RGS16-Gao: 105; HSV augment: inactive; Insulin prom inh: 50; PKD1 kinase inh: -2; GALR2 ag: -0.2; Insulin prom inh cell count: 147; HSV augment primary fold: 0.98

Results for COCC(C)NC(=O)c1ccc(Cl)c(Cl)c1 (stereo unspecified) ?
RGS16-Gao: 101; HSV augment: inactive; Insulin prom inh: 44; PKD1 kinase inh: -4; GALR2 ag: -2.7; Insulin prom inh cell count: 75; HSV augment primary fold: 0.87

How did Cc1ccc(S(=O)(=O)NCCNC(=O)CN2CCCC2)cc1 do in these assays?
RGS16-Gao: 99; HSV augment: inactive; Insulin prom inh: 14; PKD1 kinase inh: -1; GALR2 ag: -0.9; Insulin prom inh cell count: 139; HSV augment primary fold: 0.79

Results for COc1cccc(-c2nc3ccc([N+](=O)[O-])cc3o2)c1 ?
RGS16-Gao: 97; HSV augment: inactive; PKD1 kinase inh: 0; HSV augment primary fold: 1

How did CSc1sc(C)cc1C1C(C#N)=C(N)N(c2cccnc2)C2=C1C(=O)CCC2 (stereo unspecified) do in these assays?
RGS16-Gao: 99; HSV augment: inactive; Insulin prom inh: 9; PKD1 kinase inh: -12; GALR2 ag: -2.1; Insulin prom inh cell count: 142; HSV augment primary fold: 0.92

How did Cc1ccc(S(=O)(=O)N2CCN(Cc3nc4ccccc4[nH]3)CC2)cc1C do in these assays?
RGS16-Gao: 100; HSV augment: inactive; Insulin prom inh: 13; PKD1 kinase inh: -9; GALR2 ag: -2.2; Insulin prom inh cell count: 110; HSV augment primary fold: 1

Results for COc1ccc2cc3cc(C(=O)Nc4cc(OC)c(OC)c(OC)c4)oc3nc2c1 ?
RGS16-Gao: 77; HSV augment: inactive; Insulin prom inh: 41; PKD1 kinase inh: -5; GALR2 ag: 0.1; Insulin prom inh cell count: 110; HSV augment primary fold: 0.87

How did COc1ccc(C(CCN(Cc2ccc(OC)c(OC)c2)C(C)=O)c2ccccc2)cc1 (stereo unspecified) do in these assays?
RGS16-Gao: 95; HSV augment: inactive; PKD1 kinase inh: -6; GALR2 ag: 0.9; HSV augment primary fold: 1.1

Results for COC(=O)c1onc(-c2c(C)cc(C)cc2C)c1C(=O)OC ?
RGS16-Gao: 97; HSV augment: inactive; PKD1 kinase inh: 0; GALR2 ag: -1.7; HSV augment primary fold: 1

Results for CCCN1C2CCCC1CC(NC(=S)Nc1cc(C)ccc1C)C2 (stereo unspecified) ?
RGS16-Gao: 101; HSV augment: inactive; Insulin prom inh: -19; PKD1 kinase inh: -15; GALR2 ag: -1.3; Insulin prom inh cell count: 76; HSV augment primary fold: 0.93

What do the screens show for `CC(C)Cn1c(N)c(C(=O)COC(=O)c2cc(C(F)(F)F)nc3c(C(F)(F)F)cccc23)c(=O)n(C)c1=O`?
RGS16-Gao: 66; Insulin prom inh: 15; PKD1 kinase inh: -2; GALR2 ag: -1.4; Insulin prom inh cell count: 89

How did Cc1cc(C)cc(NC(=O)c2cccn2-c2ncc(C(F)(F)F)cc2Cl)c1 do in these assays?
RGS16-Gao: 112; HSV augment: inactive; Insulin prom inh: -175; PKD1 kinase inh: 1; GALR2 ag: -1.3; Insulin prom inh cell count: 156; HSV augment primary fold: 1.2

Results for O=S(=O)(NCc1cccnc1)c1ccc(Cl)s1 ?
RGS16-Gao: 104; HSV augment: inactive; Insulin prom inh: -6; PKD1 kinase inh: -11; GALR2 ag: -0.8; Insulin prom inh cell count: 115; HSV augment primary fold: 1.1

What do the screens show for `Clc1nc(-c2cccnc2)nc2scc(-c3ccccc3)c12`?
RGS16-Gao: 101; HSV augment: inactive; Insulin prom inh: -7; PKD1 kinase inh: -3; GALR2 ag: -1.8; Insulin prom inh cell count: 131; HSV augment primary fold: 0.8

Results for CCCCN(C)C(=O)c1nc2ccccn2c1CN1CCN(C/C=C/c2ccccc2)CC1 ?
RGS16-Gao: 98; HSV augment: inactive; PKD1 kinase inh: -6; HSV augment primary fold: 1.1

How did CCC(Oc1ccccc1)C(=O)O/N=C(\N)c1ccc(OC)c(OC)c1 (stereo unspecified) do in these assays?
RGS16-Gao: 102; HSV augment: inactive; Insulin prom inh: -31; PKD1 kinase inh: -7; GALR2 ag: 0.4; Insulin prom inh cell count: 92; HSV augment primary fold: 0.93

How did Cc1ccc(C2C3=C(CCCC3=O)Nc3nc(SCC(=O)NCc4ccco4)[nH]c(=O)c32)cc1 (stereo unspecified) do in these assays?
RGS16-Gao: 102; HSV augment: inactive; Insulin prom inh: 42; PKD1 kinase inh: -7; GALR2 ag: -3.2; Insulin prom inh cell count: 115; HSV augment primary fold: 0.95

What do the screens show for `CCc1ccc(NC(=S)N(CCCN2CCOCC2)Cc2ccccn2)cc1`?
RGS16-Gao: 100; HSV augment: inactive; Insulin prom inh: 24; PKD1 kinase inh: 2; GALR2 ag: -1.1; Insulin prom inh cell count: 115; HSV augment primary fold: 1.1

What do the screens show for `O=C(Nc1ccccc1C(=O)N1CCOCC1)C1CCC(=O)N1C1CCCC1` (stereo unspecified)?
RGS16-Gao: 109; HSV augment: inactive; Insulin prom inh: -6; PKD1 kinase inh: 1; GALR2 ag: -0.2; Insulin prom inh cell count: 88; HSV augment primary fold: 1.1

Results for CC(OC(=O)c1ccc2ccccc2n1)C(=O)Nc1ccc(N2CCOCC2)cc1 (stereo unspecified) ?
RGS16-Gao: 90; HSV augment: inactive; Insulin prom inh: 14; PKD1 kinase inh: 15; GALR2 ag: -2.7; Insulin prom inh cell count: 204; HSV augment primary fold: 0.96

Results for COc1ccc(OCC(=O)N/N=C(/C)Cc2ccccc2)cc1 ?
RGS16-Gao: 98; HSV augment: inactive; Insulin prom inh: 0; PKD1 kinase inh: 2; GALR2 ag: -1.6; Insulin prom inh cell count: 116; HSV augment primary fold: 0.98

What do the screens show for `COc1cccc(-n2c(C)n[nH]c2=O)c1`?
RGS16-Gao: 104; HSV augment: inactive; Insulin prom inh: -7; PKD1 kinase inh: 4; GALR2 ag: -1.2; Insulin prom inh cell count: 146; HSV augment primary fold: 0.9

What do the screens show for `CCCCCOc1ccc(/C=c2\sc3nc(=O)c(-c4ccccc4)nn3c2=O)cc1OC`?
RGS16-Gao: 65; HSV augment: inactive; Insulin prom inh: 15; PKD1 kinase inh: -7; GALR2 ag: -0.9; Insulin prom inh cell count: 90; HSV augment primary fold: 1.1

How did CCOC(=O)N1CCC(NC(=O)c2cc(C(=O)Nc3ccc(OC)c(OC)c3)ccc2CO)CC1 do in these assays?
RGS16-Gao: 102; HSV augment: inactive; PKD1 kinase inh: -4; GALR2 ag: -0.9; HSV augment primary fold: 0.96

A section of the results above:
Results for O=S(=O)(NCc1cccnc1)c1ccc(Cl)s1 ?
RGS16-Gao: 104; HSV augment: inactive; Insulin prom inh: -6; PKD1 kinase inh: -11; GALR2 ag: -0.8; Insulin prom inh cell count: 115; HSV augment primary fold: 1.1

What do the screens show for `Clc1nc(-c2cccnc2)nc2scc(-c3ccccc3)c12`?
RGS16-Gao: 101; HSV augment: inactive; Insulin prom inh: -7; PKD1 kinase inh: -3; GALR2 ag: -1.8; Insulin prom inh cell count: 131; HSV augment primary fold: 0.8

Results for CCCCN(C)C(=O)c1nc2ccccn2c1CN1CCN(C/C=C/c2ccccc2)CC1 ?
RGS16-Gao: 98; HSV augment: inactive; PKD1 kinase inh: -6; HSV augment primary fold: 1.1

Continuation:
Results for COc1cc2c(cc1OC)C(C(=O)NCCN(C)C)C(c1cccs1)N(C)C2=O (stereo unspecified) ?
RGS16-Gao: 97; HSV augment: inactive; PKD1 kinase inh: 0; HSV augment primary fold: 0.92

How did O=C(Nc1ccccc1C(F)(F)F)N1CCN(c2ccc3nnc(-c4ccc(F)cc4)n3n2)CC1 do in these assays?
RGS16-Gao: 103; HSV augment: inactive; Insulin prom inh: 0; PKD1 kinase inh: 1; GALR2 ag: 0.0; Insulin prom inh cell count: 81; HSV augment primary fold: 0.85

What do the screens show for `O=C(NCCc1ccc(Cl)cc1)C1CCN(S(=O)(=O)N2CCCC2)CC1`?
RGS16-Gao: 54; HSV augment: inactive; Insulin prom inh: -8; PKD1 kinase inh: -8; GALR2 ag: 0.6; Insulin prom inh cell count: 114; HSV augment primary fold: 0.86

Results for CC1CC(C)(C)NC(=S)N1CCCC(=O)Nc1ccc(F)c(F)c1 (stereo unspecified) ?
RGS16-Gao: 105; HSV augment: inactive; PKD1 kinase inh: 1; HSV augment primary fold: 0.87

Results for Cn1nccc1NC(=O)Nc1cccc([N+](=O)[O-])c1 ?
RGS16-Gao: 109; HSV augment: inactive; HSV augment primary fold: 0.9

What do the screens show for `OC(COCC1COc2ccccc2O1)CN1CCN(c2ccccn2)CC1` (stereo unspecified)?
RGS16-Gao: 111; HSV augment: inactive; Insulin prom inh: 3; PKD1 kinase inh: -11; GALR2 ag: -1.6; Insulin prom inh cell count: 82; HSV augment primary fold: 1

Of the compounds above, two contain an aryl thioether with sulfur outside any ring.
How did CSc1sc(C)cc1C1C(C#N)=C(N)N(c2cccnc2)C2=C1C(=O)CCC2 (stereo unspecified) do in these assays?
RGS16-Gao: 99; HSV augment: inactive; Insulin prom inh: 9; PKD1 kinase inh: -12; GALR2 ag: -2.1; Insulin prom inh cell count: 142; HSV augment primary fold: 0.92

How did Cc1ccc(C2C3=C(CCCC3=O)Nc3nc(SCC(=O)NCc4ccco4)[nH]c(=O)c32)cc1 (stereo unspecified) do in these assays?
RGS16-Gao: 102; HSV augment: inactive; Insulin prom inh: 42; PKD1 kinase inh: -7; GALR2 ag: -3.2; Insulin prom inh cell count: 115; HSV augment primary fold: 0.95

Compound activity from PubChem BioAssay.
